CtBP-E1A inh: blocks the CtBP interaction with E1A; AlphaScreen GST-E1A/His-CtBP binding, 1536-well; stronger effect = lower value; control for the full effect not named in the record; activity change, % (concentration not given with the values); hit rate 0.49% among 340,000; AID 651724; in the data active means activity change below about -65%; inconclusive means about -30% to -65%; inactive means above about -30%; also: % is scaled to controls: 0 for no effect and ±100 for the full control effect
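GST-E1A and His-tagged CtBP (125 nM each as 5X stock) were preincubated with pin-transferred compound for 2 h at 37 °C in the dark, then glutathione donor and nickel acceptor beads were added for 1 h before AlphaScreen reading.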
Sfp inh: Sfp phosphopantetheinyl transferase inhibition. Q9F4F7. Biochemical Sfp PPTase activity, qHTS. Potency, µM, without a hit: max response, negative = inhibition, hits mostly inhibitors. hit rate 3.5% among 310,000. AID 1490; active = well fitted inhibition curve with a large enough effect; inconclusive = small, poorly fitted or top-dose-only effect, or another doubt; inactive = no such curve, though single readings can be large or run the other way;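 also: the enzyme is Sfp with the accession as filed and its product quenches rhodamine fluorescence; potency is read from the fitted curve at half-maximal effect; 0% = enzyme reaction without inhibitor and -100% = no enzyme wells; top concentration of the series not given in the record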
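Fluorescence-quenching assay with 15 nM Sfp, 5 uM rhodamine-CoA and 12.5 uM BHQ-2-labelled ybbR peptide in pH 7.6 Hepes/MgCl2 buffer. Enzyme was pre-incubated with compound for 15 min at room temperature. Rate was taken from the 30-min fluorescence change (525/598 nm).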
Six1-Eya2 inh: blocks human Six1 binding to Eya2 | Q15475+O00167 | AlphaScreen GST-Six1/His-Eya2 binding, biochemical; stronger effect = lower value; control for the full effect not named in the record | activity change, % (no concentration beside the values) | hit rate 0.56% among 360,000 | AID 651725; in the data active = activity change below about -65%; inconclusive = about -30% to -65%; inactive = above about -30%; also: % is scaled to controls: 0 for no effect and ±100 for the full control effect; compound concentration not given in the record
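AlphaScreen with GST-Six1 and His-Eya2 (5X mix: 250 nM and 500 nM), glutathione donor and nickel acceptor beads; buffer 50 mM Tris pH 8.0, 300 mM NaCl, 1 mM TCEP; 1 h at 37 C in the dark.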
PINK1 modulator: changes PINK1 expression | PINK1 immunofluorescence, high-content cytometry, 24 h | Potency, µM (doses to about 76.6 µM), without a hit: at the highest dose activation (PINK1 increase), usual class: activators | hit rate 0.2% among 410,000; active = well fitted activation curve with a large enough effect; inconclusive = small, poorly fitted or top-dose-only effect; inactive = flat fitted curve, though single readings scatter; cell line not stated here;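 also: potency is read from the fitted curve at half-maximal effect; % of control where 0% means no effect; nearly all actives have a fitted effect of over 65% in size; a mitochondrial uncoupler was the plate control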
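Stable cell line, 250 cells/well, 12 h attachment; compounds pinned at 5 concentrations, 24 h; CCCP control. Fixed with nuclear dye, primary antibodies 12 h at 10 degrees C, secondary plus cell stain; laser-scanning cytometer read.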
D2 agonist: agonists of human D2 dopamine receptor (beta-arrestin); P14416; DiscoveRx PathHunter D2 beta-arrestin, luminescence, 90 min; 100% = 57 uM dopamine signal; activation, % (no concentration beside the values); hit rate 0.084% among 360,000; AID 624465; in the data active = activation above about 40%; inconclusive = about 15% to 40%; inactive = below about 15%; also: compound concentration not given in the record; the text of the record calls up to 30% inactive
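Agonist mode: compounds alone added to overnight-plated D2 PathHunter cells for 90 min at 37 C, with 57 uM final dopamine (EC100) defining full response. Beta-arrestin recruitment detected by chemiluminescent reagent, read after 1 h at ambient temperature.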
TRPV1 PAM: potentiators of human vanilloid receptor 1 (TRPV1) | Q8NER1 | TRPV1-expressing cells, Fluo-8 calcium influx, capsaicin EC20 potentiation; host cell line not named in the record; control for the full effect not named in the record | potentiation, % at 8.33 µM | hit rate 0.02% among 320,000; active means potentiation above 80%; inconclusive means 30% to 80%; inactive means below 30%; also: 0% is about no effect
Target sequence (Q8NER1 whole entry, looked up): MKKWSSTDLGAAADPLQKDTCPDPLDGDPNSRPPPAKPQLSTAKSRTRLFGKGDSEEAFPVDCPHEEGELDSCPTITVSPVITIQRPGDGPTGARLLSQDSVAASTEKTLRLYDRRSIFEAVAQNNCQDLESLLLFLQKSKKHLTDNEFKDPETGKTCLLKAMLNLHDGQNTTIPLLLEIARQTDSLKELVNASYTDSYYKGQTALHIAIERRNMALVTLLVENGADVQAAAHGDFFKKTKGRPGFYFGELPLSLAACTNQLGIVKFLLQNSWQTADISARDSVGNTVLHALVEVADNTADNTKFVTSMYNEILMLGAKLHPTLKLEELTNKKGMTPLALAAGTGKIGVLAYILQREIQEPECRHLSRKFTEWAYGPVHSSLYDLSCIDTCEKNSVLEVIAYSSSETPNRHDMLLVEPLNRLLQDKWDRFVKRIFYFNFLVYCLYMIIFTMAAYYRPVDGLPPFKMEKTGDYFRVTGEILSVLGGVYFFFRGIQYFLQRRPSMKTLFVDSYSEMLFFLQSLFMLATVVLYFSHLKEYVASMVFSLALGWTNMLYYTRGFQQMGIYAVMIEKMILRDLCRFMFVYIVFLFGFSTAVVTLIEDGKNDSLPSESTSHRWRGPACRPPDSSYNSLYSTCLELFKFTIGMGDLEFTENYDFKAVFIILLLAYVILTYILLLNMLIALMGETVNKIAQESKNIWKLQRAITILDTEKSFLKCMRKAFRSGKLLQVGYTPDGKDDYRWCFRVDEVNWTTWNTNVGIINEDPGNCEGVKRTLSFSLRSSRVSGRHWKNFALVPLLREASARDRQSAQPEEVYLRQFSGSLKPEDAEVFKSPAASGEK
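Fluo-8 calcium influx in TRPV1-expressing cells, kinetic read (ex 480/em 520 nm). Compound added and read 3 min for agonist activity, followed by capsaicin at EC20 final and 2 min further read for enhancement.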
D2 potentiator: human D2 receptor positive allosteric modulation; DiscoveRx D2 beta-arrestin cells, luminescence, 90 min; 100% = 57 uM dopamine signal; potentiation, % (test concentration not listed); P14416; hit rate 0.23% among 360,000; active = potentiation of 50% or more; inconclusive = 30% to 50%; inactive = 30% or less;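 also: compound concentration not given in the record; tested on top of an EC20 dose of dopamine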
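D2 cells co-treated with compound plus 50 nM dopamine (EC20) for 90 min at 37 deg C to detect potentiation. Beta-arrestin recruitment was read as enzyme-fragment luminescence after 1 h at ambient temperature. Full response was set by 57 uM dopamine.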
The depositor's hits bear a star; ? = inconclusive; . = not tested or not shown; & = joins results of further samples; ! = a repeat was not active; [ ] = dose if it differs, or a comment.

SMILES	CtBP-E1A inh	Sfp inh	Six1-Eya2 inh	PINK1 modulator	D2 agonist	TRPV1 PAM	D2 potentiator
O=C1/C(=C\c2cccs2)Sc2ccc3ccccc3c21	-21	-1%	-24	?	-3.5	11	-13
Cc1cc(-c2ccc([N+](=O)[O-])cc2)nc2ccccc12	-7	-5%	-14	0.4%	-0.9	-30	-5
Cc1ccc(N2CC(C(=O)Nc3nnc(SCC(N)=O)s3)CC2=O)cc1C (centres undefined)	0	-16%	2	-1.3%	-4.1	0	-4
CCc1ccccc1NC(=O)[C@@H]1CCC(=O)N1C1OC(=O)c2ccccc21 (some centres undefined)	5	8%	2	0.1%	-3.2	14	-6
CS(=O)(=O)Nc1nc2ccccc2[nH]1	.	8%	-1	0.6%	3.9	?	0
CC1CCCCN1C(=O)CSc1nc2ncccc2[nH]1 (centres undefined)	.	8%	2	1.1%	3.6	9	-12
CC(C)Cc1nc(N2CCN(C(=O)c3ccccc3)CC2)c(C#N)c2c1CCC2	0	?	-7	3.8%	-4.3	-10	-11
COc1cccc(CC(=O)Nc2ccc(-c3csc(C)n3)cc2)c1	0	9%	-3	0.4%	7.3	-13	-4
CC(=O)C1=C(O)C(=O)N(c2ccc(Br)cc2)C1c1cccc([N+](=O)[O-])c1 (centres undefined)	0	22%	2	1.4%	-3.8	-2	-4
Cc1cccc(C)c1OCC(O)Cn1ccnc1C (centres undefined)	2	1%	-8	3.5%	-6.5	-5	-9
Cc1cc(S(=O)(=O)Nc2ccc(C(=O)NCC(c3ccccc3)N(C)C)cc2)ccc1F (centres undefined)	-5	0%	-1	-1.6%	-2.5	9	-25
CCCCNC(=S)N1CCN(CC)CC1	0	-28%	10	-1.5%	3.0	9	-5
Cc1cc(NC(=O)COC(=O)c2ccccc2NCCO)no1	0	.	-11	0.1%	0.5	.	1
O=C(Nc1cccc(Cl)c1N1CCOCC1)c1cccs1	-1	-14%	-3	0.6%	-3.4	16	-8
COc1cc(/C=C2/OC(=O)c3cc([N+](=O)[O-])ccc32)cc(OC)c1OC	-1	.	-5	9.9%	-1.4	.	22
O=C(O)CN=C(NS(=O)(=O)c1ccc(Cl)cc1)c1ccc(F)cc1	7	19%	3	2.0%	-1.1	1	0
Cc1ccc(C(=O)Nc2c(C)cc(-c3ccc(Cl)cc3)oc2=O)cc1	14	6%	6	4.7%	-3.1	.	-7
Cc1onc(-c2ccccc2)c1C(=O)Oc1ccccc1	29	6%	-3	0.3%	0.6	3	-9
COc1ccc(Cl)cc1-n1c(=S)sc2c(=O)n(-c3ccc(F)cc3)c(SCC(=O)O)nc21	-6	14µM*	?	0.1%	2.3	-3	3
COc1ccc(-c2nc(CS(=O)CC(=O)NCc3ccccc3)c(C)o2)cc1OC (centres undefined)	-11	3%	0	-0.3%	0.0	?	-9
Cc1csc(NC(=O)C2CSC3(C)CCC(=O)N23)n1 (centres undefined)	6	14%	6	0.7%	2.6	10	14
CCc1cc[n+](-c2nc3ccccc3nc2C(=C=[N-])C#N)cc1	-3	9%	5	.	0.3	1	-3
CC(C)P(=O)(c1cccc(C(=O)O)c1)C(C)C	5	23%	7	1.3%	4.3	1	4
COc1ccc(OC)c(CNC(=O)C2CCN(C(=O)N(C)C)CC2)c1	-5	16%	-1	-2.0%[38.3 µM]	-0.2	2	-9
S=c1nc[nH]c2nc[nH]c12	-3&-1	40µM*!	-3&0	6.9%&5.2%	-5.6&7.4	-5&-1	-20&-12
COc1ccccc1/C=C1\SC(=S)N(CCC(=O)NCCCN2CCOCC2)C1=O	24	-2%	23	0.9%	-4.8	-3	2
CCOc1ccc(CN(C(=O)c2cc3ccccc3oc2=O)C2CC2)cc1	0	19%	0	-0.4%	-0.8	0	-10
O=C(CSc1nccc(=O)[nH]1)N1CCOCC1	2	6%	2	0.1%	-1.9	-8	-9
Cc1ccc(NC(=S)NC(NC(=O)Cc2cccc3ccccc23)C(Cl)(Cl)Cl)cc1 (centres undefined)	9	9%	2	7.4%	0.7	5	16
COCCNC(=O)CSc1ccc(Cl)cc1	4	18%	-1	0.1%	-1.3	-12	-2
CSc1ccc(CN2CCC2(C)C(=O)NCc2cccs2)cc1 (centres undefined)	2	.	-5	0.4%	-5.1	.	-11
CCOc1ccc(NC(=O)N2CCC(C(N)=O)(N3CCCCC3)CC2)cc1	3	16%	7	3.9%&-1.6%	1.6	-4	-8
CCN(CC)CCNS(=O)(=O)c1ccc(/C=C/C(=O)O)cc1	0	10%	7	1.1%	-1.2	10	2
COCCN(Cc1ccccc1)C(=O)c1cccc(S(=O)(=O)N2CCN(c3ccccc3)CC2)c1	-1	.	25	-1.2%	0.2	-6	-27
CCN(CC)CCn1c2ccccc2c2n[nH]c(=S)nc21	-18	28µM*	-19	1.2%	-1.4	-5	-8
CSc1ccc(S(=O)(=O)N2c3ccccc3CC2C)cc1 (centres undefined)	.	1%	8	5.5%	-0.6	3	-3
Cc1cc(C)n(C(=O)CNC(=O)c2cccc(Br)c2)n1	5	10%	0	0.3%	0.8	-12	5
NS(=O)(=O)c1ccc(S(=O)(=O)NCCc2ccccc2)cc1	-2	5%	-2	0.0%[38.3 µM]	-1.1	0	4
CCCOc1ccc2oc(=O)c3c(c2c1)CCCN3C(=O)CN1CCCC(C(=O)OCC)C1 (centres undefined)	-16	8%	-5	-1.2%	-0.8	-7	-23
O=C(Cc1ccc(NC(=O)C2CCCN(C(=O)CCc3ccccc3)C2)cc1)Nc1ccc(C(=O)N2CCOCC2)cc1 (centres undefined)	-3	.	6	0.9%	1.1	.	-1
CCOC(=O)Cc1csc(NC(=O)C(C)(C)CC)n1	9	5%	8	.	0.5	7	10
Cc1cc(C)c(S(=O)(=O)NN=C2c3ccccc3[C@H]3Cc4csc[n+]4[C@@H]23)c(C)c1	-19	.	-12	1.6%	.	.	.
Cc1cc(NC(=O)CSCCc2ccncc2)no1	3	4%	-2	-0.5%	-2.1	18	-1
COc1cc(OC)cc(C(=O)NC(C(=O)NNC(=O)c2ccc(C)cc2)C(C)C)c1 (centres undefined)	-2	.	-1	-1.4%	-1.1	-1	-2
O=C(c1cccc(F)c1)N1CCN(Cc2ccco2)CC1	0	-7%	2	1.2%	-0.3	1	0
O=c1cc(CNC2CCCCC2)c2ccccc2[nH]1	0	14%	0	-1.8%	-2.3	6	-8
Cc1nc(Cl)cc(CS(=O)(=O)c2ccc(Cl)cc2)n1	4	-1%	0	0.0%	-2.2	-4	-5
CCc1nc(SCC(=O)NC2CC2)c2c(C)c(C)sc2n1	2	7%	-2	0.1%	-1.3	-6	-4
CC1(C(=O)Nc2cccc(NS(C)(=O)=O)c2)CCN1Cc1ccccc1OC(F)F (centres undefined)	3	.	-3	1.8%	5.0	.	-4
O=C(c1ccccc1)N(CCCn1ccnc1)C(c1ccccc1)c1nc2ccccc2[nH]1 (centres undefined)	2	.	9	1.1%	-1.5	.	1
COC(=O)C1(O)CC(C(C)C)=NN1C(=O)c1ccc(Cl)cc1 (centres undefined)	8	4%	0	-3.2%	-3.6	.	-15
COC(=O)CC1C(=O)NCCN1Cc1cn(-c2ccc(C)cc2)nc1-c1cccc(C)c1 (centres undefined)	-2	-5%	-2	0.1%	-2.5	-8	-3
Cc1c(C)c(C)c(S(=O)(=O)N2CCNCC2)c(C)c1C	.	2%	10	0.5%	0.1	9	-6
OC(Cn1nnc2ccccc21)Cn1c(C(F)(F)F)nc2ccccc21 (centres undefined)	-4	5%	-5	1.8%	-4.2	7	-7
COc1ccccc1CNC(=O)Cn1cc2c(n1)CCCC2	5	46%[activator]	4	0.0%	2.6	-12	-6
COc1cccc(CNC(=O)c2ccc(OCC(=O)N3CCOCC3)c(OC)c2)c1	-12	.	3	1.9%	0.8	4	2
CN1CC(O)(C(O)C(O)C(O)CO)SC1=S (centres undefined)	-1	.	-1	1.0%	-3.6	.	-9
CN(Cc1ccc(Cl)c(Cl)c1)C(=O)CN1C(=O)NC2(CCCC2)C1=O	3	.	4	3.1%	4.0	27	-10
CC1CCc2c(sc(NC(=O)c3ccc(Cn4cc(Br)cn4)o3)c2C(N)=O)C1 (centres undefined)	9	-10%	-3	-5.0%[38.3 µM]	0.7	15	-11
CC(=O)Nc1ccc(NC(=O)c2ccc(C3SCC(=O)N3CCc3ccccc3)cc2)cc1 (centres undefined)	-2	-2%	-7	-1.0%	0.1	-1	-1

Exported as labelled records: part of the list above.
> CN1CC(O)(C(O)C(O)C(O)CO)SC1=S (centres undefined)
  CtBP-E1A inh = -1; Sfp inh = .; Six1-Eya2 inh = -1; PINK1 modulator = 1.0%; D2 agonist = -3.6; TRPV1 PAM = .; D2 potentiator = -9

> CN(Cc1ccc(Cl)c(Cl)c1)C(=O)CN1C(=O)NC2(CCCC2)C1=O
  CtBP-E1A inh = 3; Sfp inh = .; Six1-Eya2 inh = 4; PINK1 modulator = 3.1%; D2 agonist = 4.0; TRPV1 PAM = 27; D2 potentiator = -10

> CC1CCc2c(sc(NC(=O)c3ccc(Cn4cc(Br)cn4)o3)c2C(N)=O)C1 (centres undefined)
  CtBP-E1A inh = 9; Sfp inh = -10%; Six1-Eya2 inh = -3; PINK1 modulator = -5.0%[38.3 µM]; D2 agonist = 0.7; TRPV1 PAM = 15; D2 potentiator = -11

> CC(=O)Nc1ccc(NC(=O)c2ccc(C3SCC(=O)N3CCc3ccccc3)cc2)cc1 (centres undefined)
  CtBP-E1A inh = -2; Sfp inh = -2%; Six1-Eya2 inh = -7; PINK1 modulator = -1.0%; D2 agonist = 0.1; TRPV1 PAM = -1; D2 potentiator = -1

Screens as filed in PubChem.
